Screening data (PubChem BioAssay)
Polio RdRp inh: poliovirus RNA polymerase inhibition. P03300. poliovirus polymerase elongation, fluorescence polarization; stronger effect = lower value. % elongation, % (compound at 16.7 µg/mL). 150,000 tested, 0.66% active. AID 588519; in the data active = % elongation below about 90%; note: some results filed as inactive read as strong as hits
Target sequence (P03300 1749-2209 limits assumed): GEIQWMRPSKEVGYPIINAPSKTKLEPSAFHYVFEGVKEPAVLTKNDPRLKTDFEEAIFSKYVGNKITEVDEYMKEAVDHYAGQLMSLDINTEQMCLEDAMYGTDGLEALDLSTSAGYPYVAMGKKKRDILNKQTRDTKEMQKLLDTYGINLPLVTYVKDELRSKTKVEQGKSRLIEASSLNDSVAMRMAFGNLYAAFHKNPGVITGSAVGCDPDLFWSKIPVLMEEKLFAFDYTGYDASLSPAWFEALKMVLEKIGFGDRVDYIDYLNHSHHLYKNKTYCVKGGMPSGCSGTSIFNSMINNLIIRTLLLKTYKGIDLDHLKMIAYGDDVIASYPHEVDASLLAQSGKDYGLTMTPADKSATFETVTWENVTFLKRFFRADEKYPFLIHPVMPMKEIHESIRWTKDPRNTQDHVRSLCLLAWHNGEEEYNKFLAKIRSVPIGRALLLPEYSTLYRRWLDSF
Polio RdRp inh intensity: recorded beside Polio RdRp inh, whose call it bears; % elongation; measured here: total intensity read-out; formula for this scale not given here;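 total fluorescence in place of polarization; lower means less elongation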
Starred values were filed as active, the others as inactive. The list is partial (hit frequency here may not be typical).

Below each SMILES – Polio RdRp inh, Polio RdRp inh intensity
1. CCCCc1nn2c(=O)cc(COC(=O)c3ccccc3NC(=O)C3CCCCC3)nc2s1
→ 100, 107
2. COc1ccc(-c2cc(C(=O)Oc3ccc(C)cc3)c3ccccc3n2)cc1
→ 107, 104
3. Cc1cccc(CSCCNC(=O)CN(c2ccccc2)S(=O)(=O)N(C)C)c1
→ 108, 108
4. Cc1cc(Br)cc(C)c1NC(=O)c1cnc2ccccn2c1=O
→ 106, 112
5. CCOc1ccc(CNC(=O)CS(=O)(=O)c2cccc3nsnc23)cc1
→ 109, 102
6. CC1=Nc2cc(C(=O)NC(C)C)ccc2Sc2ccc(C)cc21
→ 112, 114
7. Cc1ccc(N(Cc2cccs2)C(=O)c2ccc(OC(C)C)cc2)cc1
→ 101, 93
8. CCOC(=O)c1cc(-c2ccc(C)cc2)n(CCC(=O)NCCc2ccc(C)cc2)c1C
→ 105, 111
9. Cc1ccn2c(Nc3ccc4c(c3)OCO4)c(-c3ccc(O)cc3)nc2c1
→ 105, 105
10. CCOC(=O)C1CCCN(S(=O)(=O)c2cc(Br)cc3c2N(C(=O)CC)CC3)C1 (centres undefined)
→ 109, 110
11. CCCCOc1ccc(NC(=O)c2cc3c(n(-c4ccc(Cl)cc4)c2=O)CCCC3=O)cc1
→ 107, 101
12. Cc1ccc(CCNC(=O)c2ccc(CS(=O)(=O)c3ccc(Br)cc3)o2)cc1
→ 103, 101
13. CCOC(=O)c1c(C)[nH]c(C)c1S(=O)(=O)N1CCC(C(=O)NCc2ccccc2)CC1
→ 103, 111
14. Cc1nc2nc(SCC(=O)NCc3ccccc3Cl)nn2c(C)c1Cc1ccccc1
→ 103, 104
15. CC(=O)N1CCN(C(=O)C(=O)Nc2c3c(nn2-c2ccc(Cl)cc2)CSC3)CC1
→ 103, 98
16. CN(C)c1ccc(CNC(=O)C(Cc2ccccc2)NS(=O)(=O)c2ccc3c(c2)oc(=O)n3C)cc1 (centres undefined)
→ 104, 98
17. CCN(C(=O)CSc1nc2ccccc2n1CC(=O)Nc1ccc(F)cc1F)c1ccccc1
→ 99, 103
18. COc1ccc(NC(=O)Cn2cc(S(=O)(=O)c3ccc(C)cc3)c(=O)c3ccccc32)cc1OC
→ 106, 99
19. CCOc1cc(CNC(=O)c2ccc3nc(C(C)C)oc3c2)cc(OCC)c1OCC
→ 110, 114
20. Cc1ccc(N2CCN(c3c(CN4CCCC4)c(=O)oc4ccccc34)CC2)c(C)c1
→ 108, 109
21. COc1ccc(CCNC(=O)c2cccc(Nc3nc4ccccc4nc3-n3nc(C)cc3C)c2)cc1OC
→ 103, 108
22. CC(C)(C)c1ccc(-c2nc3cc(NC(=O)c4cc5ccccc5o4)ccc3o2)cc1
→ 108, 112
23. CC(=O)C1=C(c2ccc(C)cc2)N(C(C)=O)n2c(nnc2C2CCCCC2)S1
→ 101, 99
24. COc1ccc(N2Cc3cccc(C(=O)Nc4ccc(C)cc4)c3C2=O)cc1
→ 106, 107
25. Cc1ccc(S(=O)(=O)Nc2ccc(-c3ccc(N4CCCCCC4)nn3)cc2)c(C)c1
→ 98, 105
26. Cc1ccc(-n2c(=O)c3ccc(C(=O)NCc4ccco4)cc3n(Cc3ccc(Cl)cc3)c2=O)cc1
→ 104, 106
27. COC(=O)c1sccc1S(=O)(=O)N1CCN(c2ccc(Cl)cc2)CC1
→ 102, 105
28. O=c1c2ccccc2nc(/C=C/c2ccccc2)n1-c1ccccc1F
→ 107, 109
29. CC(C)OCCCn1c(SCc2cccc(Br)c2)nc2c(sc3ccccc32)c1=O
→ 103, 108
30. Cc1ccccc1CN1CCCN(CC(=O)Nc2c(C)cccc2C)S1(=O)=O
→ 108, 112

Ordered by SMILES length (descending): part of the list above.
Below each SMILES – Polio RdRp inh, Polio RdRp inh intensity
26. Cc1ccc(-n2c(=O)c3ccc(C(=O)NCc4ccco4)cc3n(Cc3ccc(Cl)cc3)c2=O)cc1
→ 104, 106
19. CCOc1cc(CNC(=O)c2ccc3nc(C(C)C)oc3c2)cc(OCC)c1OCC
→ 110, 114
27. COC(=O)c1sccc1S(=O)(=O)N1CCN(c2ccc(Cl)cc2)CC1
→ 102, 105

Other compounds follow:
Below each SMILES – Polio RdRp inh, Polio RdRp inh intensity
31. O=C(CSc1oc(-c2ccco2)nc1S(=O)(=O)c1ccc(Cl)cc1)c1ccc(Cl)cc1
→ 97, 99
32. Cc1nnc(N2CCCC(C(=O)NCc3ccccc3)C2)c2nn(-c3ccccc3)c(C)c12 (centres undefined)
→ 101, 99
33. CCC1CN(C(=O)Nc2cc(Cl)ccc2C(=O)OC)c2ccccc2S1 (centres undefined)
→ 106, 98
34. Cc1cc(N2CCN(c3cccc(C)c3C)CC2)n2cnnc2n1
→ 107, 101
35. c1csc(C2=NC(c3ccncc3)=Nc3ccccc3N2)c1
→ 101, 99
36. O=C(Nc1ccc(N2CCN(CCOc3ccc(Cl)cc3)CC2)c(C(=O)O)c1)c1ccc(F)cc1
→ 100, 104
37. COc1ccc2c(c1)c(=O)c(S(=O)(=O)c1ccc(C)cc1)cn2Cc1ccccc1C
→ 105, 105
38. Cc1cc(=O)n(CC(=O)N2CCCc3ccccc32)c2c1c(C)nn2-c1cccc(F)c1
→ 110, 110
39. CCNC(=O)C1CCCN(c2nnc(C)c3c(C)n(-c4ccc(C)cc4)nc23)C1 (centres undefined)
→ 108, 111
40. COc1ccc(-n2c(SCc3nc(-c4ccc(Cl)cc4)no3)nnc2-c2ccncc2)cc1
→ 114, 107
41. COC(=O)c1c(NC(=O)c2cc(OC)c(OC)c(OC)c2Br)sc2c1CCC(C)C2 (centres undefined)
→ 105, 96
42. O=c1c2c3c(sc2n(Cc2ccccc2F)c(=O)n1-c1ccc(Cl)cc1)CCCC3
→ 108, 111
43. CCC1Sc2ccccc2N(CC(=O)NCc2ccc(C)cc2)C1=O (centres undefined)
→ 114, 116
44. CCCCn1cnc2cc(NCc3ccc(OCC)cc3)ccc21
→ 106, 111
45. Fc1ccc(C2=NC(c3cccc(C(F)(F)F)c3)=Nc3ccccc3N2)cc1
→ 106, 109
46. COc1cccc(C(=O)CC2(O)C(=O)N(Cc3ccccc3)c3ccccc32)c1 (centres undefined)
→ 106, 104
47. COc1ccc(C(=O)N(Cc2cc(OC)c(OC)c(OC)c2)CC2CCCO2)cc1 (centres undefined)
→ 103, 109
48. Cc1ccc(OCC(=O)NCC(c2ccc(Cl)cc2)N2CCOCC2)cc1C (centres undefined)
→ 110, 112
49. Cc1cc2c(cc1S(=O)(=O)CCC(=O)NCCc1ccccc1)OCC(=O)N2
→ 108, 111
50. CCOc1ccc(-c2cccc(NS(=O)(=O)c3ccccc3C(F)(F)F)c2)nn1
→ 109, 107
51. Cc1ccc(CCNC(=O)CCCn2c(=O)c3ccccc3n(Cc3ccccc3C#N)c2=O)cc1
→ 107, 112
52. CCc1ccc(NC(=O)Cn2c(=O)oc3cc(S(=O)(=O)N4CCCCCC4)ccc32)cc1
→ 103, 106
53. CC(=O)N1CCC2(CC1)OC(=O)C(C)=C2C(=O)NCc1ccccc1Cl
→ 104, 105
54. O=C(NCC(c1cccs1)S(=O)(=O)c1ccccc1)c1ccc(C(F)(F)F)cc1 (centres undefined)
→ 111, 108
55. Cc1ccc(C)c(Cn2c(=O)n(-c3ccc(F)cc3)c(=O)c3sc4ccccc4c32)c1
→ 108, 111
56. COC(=O)c1cc2sc(C)cc2n1CC(=O)Nc1ccc(C)cc1Cl
→ 104, 109
57. COc1ccc(NC(=O)[C@@H](c2ccccc2)N2Cc3ccccc3C2=O)cc1OC
→ 108, 108
58. CCc1c(-c2ccccc2)nc2ccccc2c1C(=O)NCCc1ccccc1
→ 109, 113
59. COC(=O)c1ccccc1NC(=O)c1nn(C)c2c1COc1ccccc1-2
→ 107, 109
60. Cc1ccc(-n2nc(CO)c(C(=O)NCc3cccs3)n2)cc1C
→ 105, 105
61. COc1ccc(NC(=O)CC2C(=O)N(c3ccc(OC)cc3)C(=O)N2CCC2=CCCCC2)cc1 (centres undefined)
→ 102, 106
62. Cc1ccc2nc(N3CCN(c4ccccc4F)CC3)c3nnnn3c2c1
→ 103, 108
63. Cc1cc(Cl)ccc1NC(=O)c1cc2ccccn2n1
→ 109, 112
64. CC(c1ccccc1)n1cc2c(c1-c1ccccc1Br)c(=O)n(C)c(=O)n2C (centres undefined)
→ 106, 108
65. COc1ccc(Br)cc1CNC(=O)CCCn1c(=O)c2cccn2c2ccccc21
→ 101, 101
66. CCOC(=O)c1cccc(NC(=O)C2CCN(S(=O)(=O)c3ccc4c(c3)oc(=O)n4C)CC2)c1
→ 109, 112
67. CCOC(=O)c1noc2ncnc(N3CCN(c4cccc(Cl)c4)CC3)c12
→ 109, 109
68. COc1cccc(C(=O)NC(=O)Nc2ccc(-c3cc(C(F)(F)F)nn3-c3ccccc3)cc2)c1
→ 101, 98
69. Cc1nn(C)c2c1c(C(F)(F)F)cc(=O)n2Cc1cccc(Br)c1
→ 107, 113
70. CCOc1ccc(-c2nc(-c3ccccc3)c(-c3ccccc3)[nH]2)cc1OCC
→ 103, 101
71. O=C(NCCc1ccc(F)cc1)C(=O)NCC(c1ccco1)S(=O)(=O)c1ccccc1 (centres undefined)
→ 102, 99
72. Cc1cccc(NC(=O)N2CCC(N3CCN(Cc4ccccc4)C(=O)C3=O)CC2)c1C
→ 106, 111
73. CCc1ccc(C(=O)c2cn(CC(=O)Nc3ccc4c(c3)OCO4)c3ccc(F)cc3c2=O)cc1
→ 105, 109
74. COc1cccc(CNC(=O)Cn2ncc3c4ccccc4n(Cc4ccccc4)c3c2=O)c1
→ 113, 113
75. O=C(NCCCc1nc2ccccc2n1Cc1ccccc1F)c1ccco1
→ 106, 109
76. Cc1ccccc1N1CC(c2nc3ccccc3n2CCC2CCCCC2)CC1=O (centres undefined)
→ 104, 109
77. Cc1ccc(C)c(OCCSc2nc3ccccc3n2CC(=O)N2CCOCC2)c1
→ 110, 113
78. CC(C)CCNC(=O)C1CCC(Cn2c(=O)c3sccc3n(CC(=O)NC(C)C)c2=O)CC1 (centres undefined)
→ 103, 108
79. Cc1ccc(C(=O)Nc2nnc(SCc3cc(=O)n4ccc(C)cc4n3)s2)cc1
→ 102, 100
80. COc1cc(C2NC(=O)N(C)C3=C2C(=O)N(c2cccc(Cl)c2)C3)ccc1O (centres undefined)
→ 107, 110

The listing continues:
Below each SMILES – Polio RdRp inh, Polio RdRp inh intensity
81. CC(C)COc1ccc(Nc2ncnc3ccc(Br)cc23)cc1
→ 104, 104
82. COc1cccc(NC(=O)Nc2ccc3snnc3c2)c1
→ 107, 113
83. CCOC(=O)c1ccc(OC(=O)c2cn(-c3ccc(C)cc3)c(=O)c3ccccc23)cc1
→ 105, 109
84. COc1ccc(CNc2oc(-c3ccc(COc4ccccc4C)o3)nc2C#N)cc1
→ 103, 104
85. COc1ccc(C(=O)c2oc3ccccc3c2NC(=O)c2ccc(F)cc2)cc1
→ 107, 113
86. CCOC(=O)c1c(NC(=O)c2ccc(S(=O)(=O)N(CCOC)CCOC)cc2)sc2c1CC(C)(C)NC2(C)C
→ 83*, 79*
87. CCCCN(CC)CCCNC(=O)Cn1nc(CC)n2c(cc3sccc32)c1=O
→ 96, 97
88. Cc1ccccc1-c1nc(CS(=O)(=O)CC(=O)Nc2c(C)cccc2C)c(C)o1
→ 100, 99
89. Cc1cccc(NC(=O)c2cnn(-c3ccccc3)c2-n2cccc2)c1C
→ 104, 106
90. CC(C)(C)C(=O)NC1CC(=O)N(c2ccc3c(c2)OCCO3)C1 (centres undefined)
→ 103, 103
91. COc1cc(-c2nc3sccn3c2Nc2c(C)cccc2C)ccc1O
→ 101, 103
92. CCOc1ccccc1CNC(=O)Cn1ncn2nc(-c3cccs3)cc2c1=O
→ 111, 108
93. CC(C)c1ccc(NC(=O)Cn2cc(S(=O)(=O)N3CCN(c4ccccc4F)CC3)c3ccccc3c2=O)cc1
→ 112, 113
94. COc1ccc(Cl)cc1NC(=O)c1cc(S(=O)(=O)N2CCc3ccccc32)cn1C
→ 105, 109
95. O=C(Nc1ccc(Br)cc1)C1CCN(c2ncccn2)CC1
→ 109, 112
96. COc1ccc(C)cc1N(C)C(=O)c1c2c(nc3ccccc13)C(=O)N(C1CCCCC1)C2
→ 108, 113
97. COc1ccc(C(=O)NCC(c2cccnc2)N2CCc3ccccc32)cc1 (centres undefined)
→ 104, 100
98. CN(C)CCNC(=O)C(=O)NCC(c1cccnc1)N1CCN(c2ccc(F)cc2)CC1 (centres undefined)
→ 112, 115
99. Cc1ccc(NC(=O)C(Cc2ccccc2)NS(=O)(=O)c2ccc3c(c2)CCC(=O)N3)cc1 (centres undefined)
→ 103, 98

Arranged by heavy-atom count (smallest number first): part of the list above
Below each SMILES – Polio RdRp inh, Polio RdRp inh intensity
82. COc1cccc(NC(=O)Nc2ccc3snnc3c2)c1
→ 107, 113
95. O=C(Nc1ccc(Br)cc1)C1CCN(c2ncccn2)CC1
→ 109, 112
81. CC(C)COc1ccc(Nc2ncnc3ccc(Br)cc23)cc1
→ 104, 104
91. COc1cc(-c2nc3sccn3c2Nc2c(C)cccc2C)ccc1O
→ 101, 103
89. Cc1cccc(NC(=O)c2cnn(-c3ccccc3)c2-n2cccc2)c1C
→ 104, 106
97. COc1ccc(C(=O)NCC(c2cccnc2)N2CCc3ccccc32)cc1 (centres undefined)
→ 104, 100
85. COc1ccc(C(=O)c2oc3ccccc3c2NC(=O)c2ccc(F)cc2)cc1
→ 107, 113
94. COc1ccc(Cl)cc1NC(=O)c1cc(S(=O)(=O)N2CCc3ccccc32)cn1C
→ 105, 109
84. COc1ccc(CNc2oc(-c3ccc(COc4ccccc4C)o3)nc2C#N)cc1
→ 103, 104
98. CN(C)CCNC(=O)C(=O)NCC(c1cccnc1)N1CCN(c2ccc(F)cc2)CC1 (centres undefined)
→ 112, 115
96. COc1ccc(C)cc1N(C)C(=O)c1c2c(nc3ccccc13)C(=O)N(C1CCCCC1)C2
→ 108, 113
86. CCOC(=O)c1c(NC(=O)c2ccc(S(=O)(=O)N(CCOC)CCOC)cc2)sc2c1CC(C)(C)NC2(C)C
→ 83*, 79*
93. CC(C)c1ccc(NC(=O)Cn2cc(S(=O)(=O)N3CCN(c4ccccc4F)CC3)c3ccccc3c2=O)cc1
→ 112, 113
